Screening results: PubChem BioAssay, National Center for Advancing Translational Sciences (NCATS)
gsp ag = qHTS for Agonist of gsp, the Etiologic Mutation Responsible for Fibrous Dysplasia/McCune-Albright Syndrome: qHTS. AID 624287, 2012. Potency, µM (doses to about 76.9 µM), inactives show top-dose activation (cAMP increase), actives largely listed as activators. actives 0.13% (n = 340,000). gsp mutant cells, cAMP HTRF, 30 min; control for the full effect not named in the record; active = well fitted activation curve with a large enough effect; inconclusive = small, poorly fitted or top-dose-only effect, or another doubt; inactive = no such curve, though single readings can be large or run the other way; cell line not stated here;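 note: phosphodiesterase inhibitor Ro 20-1724 added with compounds to block cAMP breakdown; potency is the fitted concentration of half-maximal effect; nearly all actives have a fitted effect of over 60% in size; about a fifth of the inactives were tested at one dose only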
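Cells in DMEM/10% FBS with G418 were pretreated with compounds in DMSO plus […] (300 uM stock) for 30 min at 37C. cAMP was measured by HTRF (cAMP-d2 plus anti-cAMP antibody-K) after 30 min at room temperature.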
Menin MLL FP FL = qHTS Assay for Inhibitors Targeting the Menin-MLL Interaction in MLL Related Leukemias: Competition With Fluorescein Labeled MLL-derived Peptide; Fluorescence polarization, fluorescein-MLL peptide displacement from menin; FP activity change, % at 61.4 µM; 290,000 tested, under 10 active; AID 1766, 2009; inconclusive = falling polarisation curve, or a change in total fluorescence; inactive = total fluorescence flat and polarisation flat or rising; no compound was filed as active; the % refers to the polarisation; negative = inhibition;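 note: % of control where 0% means no effect; inhibitors lower the polarisation; unlabelled MLL peptide was the positive control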
TRPV1 potentiator = HTS Assay for Compounds that Act as Potentiators of the Vanilloid Receptor 1; actives 0.02% (n = 320,000); AID 540277, 2011; TRPV1-expressing cells, Fluo-8 calcium influx, capsaicin EC20 potentiation; host cell line not named in the record; control for the full effect not named in the record; potentiation, % at 8.33 µM; active means potentiation above 80%; inconclusive means 30% to 80%; inactive means below 30%; note: 0% is about no effect
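TRPV1-expressing cells were cultured overnight at 35.5C and loaded with Fluo-8 calcium dye for 40 to 90 min at room temperature. After a 10 s baseline, compound was added and calcium influx was read kinetically for 3 min (ex 480/em 520 nm).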
ClpP mod = qHTS Assay for Activators of ClpP. ATP-dependent Clp protease proteolytic subunit (Bacillus subtilis (strain 168)), P80244. purified B. subtilis ClpP, FRET peptide cleavage, 20 min. Potency, µM (series often up to 57.5 µM), inactives show top-dose activity change, negative = active. actives 1.9% (n = 340,000); active = well fitted falling curve with a large enough effect; inconclusive = small, poorly fitted or top-dose-only effect; inactive = no such curve, though single readings can be large or run the other way; note: potency is the fitted concentration of half-maximal effect; the source files actives as falling curves though it sought activators and does not explain the sign; nearly all actives have a fitted effect of over 65% in size; many hits overshoot -100%
Target sequence (P80244 whole entry, looked up): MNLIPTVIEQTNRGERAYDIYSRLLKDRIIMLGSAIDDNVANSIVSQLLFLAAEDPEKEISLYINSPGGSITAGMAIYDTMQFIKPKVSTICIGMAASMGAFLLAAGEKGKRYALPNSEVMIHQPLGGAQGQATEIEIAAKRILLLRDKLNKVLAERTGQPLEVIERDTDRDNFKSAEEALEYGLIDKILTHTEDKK
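Purified B. subtilis ClpP, 10 microg/mL final in Tris/HCl pH8 with KCl, BSA, glycerol and Tween-20, cleaved an Abz/nitrotyrosine-quenched decapeptide. Fluorescence (ex 320, em 430) was read at 0 and 20 min at room temperature. Delta was normalized to 5.8 microM ADEP and DMSO/no-enzyme controls.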
D2 potentiator = Beta-Arrestin HTS for Positive Allosteric Modulators of the Human D2 Dopamine Receptor: Potentiators; D(2) dopamine receptor (Homo sapiens), P14416; DiscoveRx D2 beta-arrestin cells, luminescence, 90 min; 100% = 57 uM dopamine signal; potentiation, % (concentration not given with the values); actives 0.23% (n = 360,000); active = potentiation of 50% or more; inconclusive = 30% to 50%; inactive = 30% or less;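 note: compound concentration not given in the record; tested on top of an EC20 dose of dopamine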
Target sequence (P14416 whole entry, looked up): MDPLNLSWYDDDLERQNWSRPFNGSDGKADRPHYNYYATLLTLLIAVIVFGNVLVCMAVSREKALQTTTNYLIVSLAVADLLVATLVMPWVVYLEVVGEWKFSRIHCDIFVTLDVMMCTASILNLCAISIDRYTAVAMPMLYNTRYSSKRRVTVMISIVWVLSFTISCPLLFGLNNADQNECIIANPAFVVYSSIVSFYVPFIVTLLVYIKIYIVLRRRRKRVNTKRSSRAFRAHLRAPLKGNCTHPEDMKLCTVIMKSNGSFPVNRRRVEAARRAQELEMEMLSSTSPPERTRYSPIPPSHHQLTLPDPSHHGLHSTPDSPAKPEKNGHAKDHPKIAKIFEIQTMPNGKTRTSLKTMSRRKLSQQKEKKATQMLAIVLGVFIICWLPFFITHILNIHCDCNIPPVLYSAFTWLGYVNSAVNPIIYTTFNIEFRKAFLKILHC
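D2 cells co-treated with compound plus 50 nM dopamine (EC20) for 90 min at 37 deg C to detect potentiation. Beta-arrestin recruitment was read as enzyme-fragment luminescence after 1 h at ambient temperature. Full response was set by 57 uM dopamine.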
Sfp PPTase inh = qHTS Assay for Inhibitors of Bacillus subtilis Sfp phosphopantetheinyl transferase (PPTase); AID 1490, 2009; 4'-phosphopantetheinyl transferase ffp (Bacillus subtilis), Q9F4F7; actives 3.5% (n = 310,000); Potency, µM, for the others: max response, negative = inhibition, usual class: inhibitors; Biochemical Sfp PPTase activity, qHTS; active = well fitted inhibition curve with a large enough effect; inconclusive = small, poorly fitted or top-dose-only effect, or another doubt; inactive = no such curve, though single readings can be large or run the other way;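 note: the enzyme is Sfp with the accession as filed and its product quenches rhodamine fluorescence; potency is the fitted concentration of half-maximal effect; 0% = enzyme reaction without inhibitor and -100% = no enzyme wells; top concentration of the series not given in the record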
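Sfp 15 nM + cpd, 15 min RT; start w/ rhodamine-CoA 5 uM, BHQ-2-YbbR 12.5 uM (final); 50 mM Hepes pH 7.6, 10 mM MgCl2, 0.01% NP-40, 0.01% BSA; read 525/598 nm at 0 and 30 min.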
gsp antagonist = qHTS for Antagonists of gsp, the Etiologic Mutation Responsible for Fibrous Dysplasia/McCune-Albright Syndrome: qHTS | AID 624288, 2012 | Potency, µM (series often up to 76.9 µM), without a hit: at the top dose activity change, negative = inhibition, most hits filed as inhibitors | actives 0.4% (n = 340,000) | gsp-mutant cells, cAMP HTRF, 30 min; control for the full effect not named in the record; active = falling curve of any shape with a large fitted effect; inconclusive = falling curve, mostly with a smaller effect; inactive = flat or rising curve; cell line not stated here;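 note: intracellular cAMP measured with PDE inhibitor Ro 20-1724 present during compound exposure; potency is the fitted concentration of half-maximal effect; % is set by controls: 0 for no effect and ±100 for the full control effect; nearly all actives have a fitted effect of over 65% in size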
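Cells in G418 medium, seeded 16-24 h, 37C; buffer exchange to DPBS + 1 mM CaCl2, 0.5 mM MgCl2, 0.05% BSA; cpds in DMSO + […] (300 uM stock), 30 min 37C; HTRF cAMP detection.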
Numbers without * were called inactive; ? = inconclusive; . = not tested or not shown; [ ] = dose if it differs, or a comment. Outcome played no part in choosing rows, and some 5.1% of all compounds hit somewhere here.

Order of values – gsp ag | Menin MLL FP FL | TRPV1 potentiator | ClpP mod | D2 potentiator | Sfp PPTase inh | gsp antagonist
1	O=C(COC(=O)c1ccc([N+](=O)[O-])s1)NCc1ccccc1
 : 10%[15.4 µM] | 0.4 | -16 | 1.1% | 9 | 12% | 3%
2	COc1ccc(C(=O)Nc2nc3nc(-c4ccccc4)cc(=O)n3[nH]2)cc1
 : -15% | -0.4 | 18 | -2.3% | 27 | 15% | -1%
3	O=C(NCC1COc2ccccc2O1)c1ccco1 (stereo not given)
 : -10% | -1.6 | -8 | 0.8% | -8 | 4% | 17%
4	Cc1nn(S(=O)(=O)c2ccc(Cl)cc2)c(C)c1S(=O)(=O)N1CCOCC1
 : -8% | -6.6 | 10 | -1.5% | -14 | 11% | 11%
5	CCOC(=O)Cn1nnnc1CN(Cc1ccccc1)Cc1cc2cc(CC)ccc2[nH]c1=O
 : 0% | -1.7 | 12 | -8.5% | -18 | 3% | -14%
6	COC(=O)c1ccc(C(=O)NC2CCCN(Cc3ccc(Cl)cc3)C2)nc1 (stereo not given)
 : -2% | -1.4 | 1 | -1.6% | -6 | 9% | 6%
7	CC(=O)Nc1ccc(S(=O)(=O)NCC(=O)OC(C)c2ccccc2Cl)cc1 (stereo not given)
 : -27% | . | 10 | 2.1% | 0 | -10% | -11%
8	COc1ccc(-c2nc(-c3cccnc3)no2)cc1OC
 : -2% | 1.0 | 3 | . | 1 | 22% | -3%
9	CC(C)OCCCNC(=O)CNC(=O)c1cccs1
 : -2% | 1.5 | -39 | -0.9% | -11 | 9% | 7%
10	CCc1nnc(NC(=O)CSc2nnc(-c3cccnc3)n2CC)s1
 : 11% | 2.7 | 3 | 0.9% | -13 | 9% | 3%
11	COC(=O)c1ccccc1NC(=O)CNc1cc(Cl)ccc1N1CCOCC1
 : 23% | -0.8 | 8 | -4.2% | -10 | ? | -8%
12	COC(=O)/C(=C/c1cccnc1)NC(=O)c1ccccc1
 : -19% | 1.0 | 10 | -3.4% | -8 | 10% | -7%
13	COC(C[C@H](O)C[C@@H](O)COCc1ccccc1)OC
 : 1% | 3.7 | ? | 0.6% | -29 | 17% | 11%
14	CC(=O)SCCC(=O)Nc1ccccc1
 : 20% | -1.3 | 3 | 2.2% | -10 | 2% | 3%
15	CCOC(=O)C1CCCN(C(=O)c2ccc(Cl)c(S(=O)(=O)N3CCCCC3)c2)C1 (stereo not given)
 : 4% | -1.5 | -16 | . | 8 | 12% | 1%
16	O=S(=O)(Nc1nc2ccc(S(=O)(=O)N3CCCC3)cc2s1)c1ccc(F)cc1
 : 0% | 1.3 | -9 | -8.7% | -16 | -14% | -11%
17	O=C(NC(=S)NNC(=O)[C@H]1C[C@@H]1c1ccccc1)c1cccc(F)c1
 : -37%[inhibitor] | -0.8 | -7 | . | -8 | 32µM* | 5%
18	COC(=O)C1CCN(CC(=O)NC(=O)Nc2ccccc2F)CC1
 : -58%[inhibitor] | . | . | 0.8% | -13 | . | 6%
19	CCc1ccc(/C=C2\SC(=S)N(CCCC(=O)Nc3nccs3)C2=O)cc1
 : -23% | -1.6 | 19 | 1.3% | -25 | -1% | 4%
20	CC1(C)C2CC[C@]3(C)C(CC=C4[C@@H]5C[C@@](C)(CO)CC[C@]5(C(=O)O)CC[C@]43C)[C@@]2(C)CC[C@@H]1O (stereo not given in full)
 : . | . | . | 1.0% | -29 | . | -4%
21	Oc1oc(-c2ccccc2)nc1C=NCc1ccncc1
 : 28% | 2.4 | -5 | -0.6% | -13 | 15% | 5%
22	O=C(COC(=O)CCC(=O)c1ccc(F)cc1)Nc1ccc2[nH]c(=O)[nH]c2c1
 : -4% | . | 2 | -1.0% | -1 | . | 3%
23	COc1ccc2c(c1)CCc1cn3nc(C)cc3nc1-2
 : -4%[15.4 µM] | -1.2 | -3 | . | 2 | -23% | -27%
24	O=C(C1CCCN(S(=O)(=O)c2cccc3nonc23)C1)N1CCN(c2ccccc2)CC1 (stereo not given)
 : -47%[inhibitor] | 0.6 | 18 | -3.2% | -17 | 9% | -28%
25	Cc1ccccc1C(=O)Nc1ccccc1NC(=O)c1ccccc1C
 : 21%[15.4 µM] | -1.6 | 2 | . | 6 | 7% | 0%
26	O=c1[nH][nH]c2cc(=O)n(-c3ccc(Cl)cc3)nc12
 : 3% | 3.8 | 19 | . | -4 | 5% | -3%
27	Cc1noc(NS(=O)(=O)c2ccc(NC(=O)CCCOc3ccc(Cl)cc3Cl)cc2)c1C
 : 2% | 1.7 | 2 | -1.2% | -2 | 16% | -11%
28	O=C(NCc1ccc(N2CCCC2=O)cc1)Nc1ccccc1
 : 8% | 2.1 | -33 | -0.7% | 7 | 17% | 12%
29	COC(=O)C1=C(C(=O)OC)[C@@H]2N(C)c3ccccc3[C@@]23C[C@@H](CO)N(C(=O)NCCBr)C3=N1
 : . | 4.0 | -35 | -0.9% | -11 | 20% | 2%
30	O=C1C=C(c2ccc(-c3ccccc3)cc2)C[C@@H](c2ccc(Cl)cc2)C1
 : 13% | . | -19 | 0.7% | 2 | . | 7%
31	COCc1cc(=O)[nH]c(=S)[nH]1
 : -11% | . | 0 | 0.5% | -22 | 13µM* | -2%
32	Cc1ccc(N2CCN(CCCCN3C(=O)C4CCCN4C3=O)CC2)cc1 (stereo not given)
 : -6% | -1.4 | 2 | 2.2% | -24 | 11% | 15%
33	C=CCn1cc(C(=O)OC)c(=O)c2cc(S(=O)(=O)N(CC)CC)ccc21
 : -5% | -1.5 | -4 | -0.1% | 2 | 14% | -4%
34	CCOC(=O)C(=Cc1ccc(F)cc1)C(=O)OCC
 : . | 3.0 | 4 | . | . | -7% | .
35	COc1ccc(CCNCC(O)COc2cccc(Br)c2)cc1 (stereo not given)
 : -7%[15.4 µM] | 3.7 | -4 | . | -14 | -26% | 17%
36	O=C(CN1CCc2ccccc2C1)Nc1ccc(F)cc1F
 : 1% | 1.8 | -2 | 0.0% | -4 | 18% | 9%
37	COc1cc(C(=O)NNC(=O)c2cccn2C)cc(OC)c1OC
 : ? | . | 8 | -0.8% | -14 | . | 12%
38	CCn1c(-c2ccccc2)ccc(C#N)c1=O
 : -61%[inhibitor] | -2.8 | -7 | -16% | -6 | -21% | 4%
39	Cc1ccc2[nH]c(=O)c(CN(Cc3ccccc3Cl)C(=O)N3CCOCC3)cc2c1
 : -1% | -0.7 | 14 | ? | 0 | 1% | -6%
40	COc1ccccc1CNC(=O)CCCn1nc(C)c2c(C)n(-c3ccccc3)nc2c1=O
 : 18% | . | -4 | -7.6% | 0 | 10% | -14%
41	CCN(c1ccccc1)S(=O)(=O)c1ccc(OC)c(NC(=O)c2cc(Cl)ccn2)c1
 : -7% | . | -13 | 1.6% | -21 | . | 8%
42	CCC(C)[C@H]1CNCCN1CCc1cccc(F)c1 (stereo not given in full)
 : 3% | . | -26 | -4.3% | -13 | . | -6%
43	Cc1noc(C)c1CN1C(=O)NC2(CCc3ccccc3C2)C1=O (stereo not given)
 : -21% | 0.8 | 25 | -1.1% | -1 | 7% | 10%
44	Cc1ccc(C)c(OCc2cc(C(=O)NC3CCOC(C)(C)C3)no2)c1 (stereo not given)
 : 3% | 1.5 | 16 | -1.2% | -17 | 6% | -1%
45	Cc1nn(C(C)C(=O)Nc2ccccc2Cl)c(=O)c2nn(-c3ccccc3)c(C)c12 (stereo not given)
 : 27% | . | -6 | -2.1% | -20 | 7% | -11%
46	CCOC(=O)c1[nH]c(COC(=O)c2ccccc2NC(=O)c2ccco2)c(C(=O)OCC)c1C
 : -20% | 11 | 19 | 78% | -7 | -29% | -13%
47	Cc1nc(-c2ccccn2)sc1C(=O)Nc1ccc(F)cc1F
 : 9% | 0.3 | -17 | -5.1% | -8 | -2% | 1%
48	CCCCCC(=O)Nc1ccc(N2CCN(C(=O)CCC)CC2)cc1
 : ? | 1.0 | 8 | -1.2% | -5 | -1% | 8%
49	O=C(Nc1nnc(SCc2cccnc2)s1)C1CC(=O)N(c2ccccc2)C1 (stereo not given)
 : ? | 1.7 | -10 | -13% | -6 | -6% | 0%
50	Cc1cccc(OCC(=O)N/N=C/c2cccn2C)c1
 : 3% | -0.3 | -9 | -1.8% | -26 | -6% | 4%

Carrying on:
Order of values – gsp ag | Menin MLL FP FL | TRPV1 potentiator | ClpP mod | D2 potentiator | Sfp PPTase inh | gsp antagonist
51	O=C(O)CCCNC1=NCCC1
 : -16% | -1.6 | ? | 0.1% | -6 | 9% | 12%
52	Cc1[nH]c(=S)c(C#N)c(C)c1CC(=O)c1ccc(Br)cc1
 : -48%[inhibitor] | -0.4 | -3 | 0.2% | -6 | -1% | -14%
53	c1ccc(-n2ncc3c(N4CCN(c5ccccn5)CC4)nc(N4CCCCC4)nc32)cc1
 : . | -0.6 | -5 | . | . | 4% | .
54	O=Nc1ccc(NOC(=O)c2ccccc2Br)cc1
 : 19%[15.4 µM] | -1.3 | -8 | . | -13 | -29% | -12%
55	CC(C)Cc1nnc(NC(=O)C23CC4CC(CC(C4)C2)C3)s1
 : -2% | -9.5 | -3 | -0.8% | -5 | -4% | -2%
56	O=C(Nc1ccc2oc(-c3ccncc3)nc2c1)c1ccco1
 : 30% | -0.1 | -11 | . | 1 | 5% | 1%
57	COCCCNc1nc2ccccc2nc1NS(=O)(=O)c1cc(Cl)ccc1Cl
 : -12% | -12 | 3 | -4.9% | -12 | 15% | ?
58	CCn1ncc(C2=NOC(C(=O)NCCc3ccccc3)C2)c1C (stereo not given)
 : -6% | -0.2 | 4 | -0.5% | 3 | 0% | 1%
